Source: PubChem
MT1-MMP act inh: blockers of MT1-MMP proenzyme processing, primary screen, HT1080 RFP-PRO-GFP cells, GFP/RFP fluorescence; Matrix metalloproteinase-14 (Homo sapiens), P50281; GFP/RFP ratio fluorescence, overnight; percent of plate control window, DMSO zero; GFP/RFP ratio change, % at 20 µM; hit rate 0.061% among 360,000;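 active = GFP/RFP ratio change of at least 30% with cell ATP level not reduced by more than half and red fluorescence within 50% of control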; also: strong numbers were not always called active
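Test system: HT1080 cells expressing an RFP-PRO-GFP fluorescent reporter construct / Compound dosing: single-point 20 µM compound, 1% DMSO / Schedule: cells overnight before dosing, compound overnight, 37 °C, 5% CO2 / Evaluation: GFP/RFP fluorescence ratio / Control set: DMSO and RFP-L50D-GFP cell wells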
PABP FP inh: PABP poly(A) RNA binding inhibitors, primary screen, biochemical, fluorescence polarization, uHTS; Polyadenylate-binding protein 1 (Homo sapiens), P11940; inhibition, % at 35 µM; hit rate 1% among 290,000;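 active = 50% or more with normal probe brightness, or confirmed in later tests; inconclusive = above 50% with abnormal brightness, or retests that disagree; inactive = below 50% or failed in later tests; about a fifth of its hits are not listed in these tables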;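 also: calls also rest on retests at 20 µM and on dose response follow-up; controls were probe without protein and protein plus probe with vehicle; some compounds called inactive have numbers as strong as hits; many hits fall short of the cut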
Target sequence (P11940 whole entry, looked up): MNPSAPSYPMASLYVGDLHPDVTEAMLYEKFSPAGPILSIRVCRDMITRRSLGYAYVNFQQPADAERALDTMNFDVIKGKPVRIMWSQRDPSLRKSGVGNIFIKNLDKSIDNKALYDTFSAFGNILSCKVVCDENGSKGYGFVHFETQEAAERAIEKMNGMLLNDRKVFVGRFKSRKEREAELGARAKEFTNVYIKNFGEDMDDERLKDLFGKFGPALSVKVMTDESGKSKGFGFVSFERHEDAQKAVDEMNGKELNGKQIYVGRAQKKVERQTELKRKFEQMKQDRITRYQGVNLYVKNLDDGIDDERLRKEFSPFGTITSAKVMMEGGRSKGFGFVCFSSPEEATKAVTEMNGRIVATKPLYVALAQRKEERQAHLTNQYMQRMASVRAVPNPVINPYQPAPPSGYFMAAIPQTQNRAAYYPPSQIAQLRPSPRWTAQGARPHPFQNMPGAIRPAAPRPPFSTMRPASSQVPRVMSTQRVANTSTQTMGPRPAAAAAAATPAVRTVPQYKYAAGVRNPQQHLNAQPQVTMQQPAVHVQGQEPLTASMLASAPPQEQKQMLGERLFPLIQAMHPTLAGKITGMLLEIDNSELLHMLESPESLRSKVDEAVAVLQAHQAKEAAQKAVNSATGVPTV
CSC inhib: cancer stem cell viability inhibitors, primary screen, luminescence | cancer stem cell-like cells viability | inhibition, % at 7.5 µM | hit rate 1.1% among 300,000 | AID 2717, 2010;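 active = mean at 75% or more and at least half the replicates too; inconclusive = mean and replicates disagree; tested in HMLE shEcad cells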;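 also: 0% = median of negative and 100% = median of positive control wells; the first replicate is given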
Rce1 inhib: yeast Rce1p protease inhibitors, primary screen, biochemical, fluorescence, cell-free homogeneous; CAAX prenyl protease 2 (Saccharomyces cerevisiae (strain ATCC 204508 / S288c)), Q03530; yeast membranes, quenched prenylated peptide cleavage fluorescence; calls only; hit rate 0.27% among 290,000;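 active = fall in fluorescence gain of 50% or more versus controls, with final raw signal at or below 3038400; inconclusive = same 50% fall but final raw signal above 3038400; inactive = fall in fluorescence gain under 50%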;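 also: plate controls were neutral control wells for no effect and wells lacking membranes for full effect; tested at 10 µM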
Target sequence (Q03530 whole entry, looked up): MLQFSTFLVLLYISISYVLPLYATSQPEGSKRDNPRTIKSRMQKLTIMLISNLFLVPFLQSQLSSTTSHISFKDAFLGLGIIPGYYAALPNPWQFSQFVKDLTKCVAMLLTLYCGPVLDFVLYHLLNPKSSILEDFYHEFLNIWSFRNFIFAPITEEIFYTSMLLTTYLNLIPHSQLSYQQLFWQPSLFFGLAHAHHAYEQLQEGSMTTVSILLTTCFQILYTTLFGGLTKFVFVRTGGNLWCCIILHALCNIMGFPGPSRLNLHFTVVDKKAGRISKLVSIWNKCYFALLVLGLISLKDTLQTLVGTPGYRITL
eIF4H FP inh: human eIF4H binding inhibitors, primary screen, translation initiation inhibitor project, biochemical, uHTS, fluorescence polarization. Eukaryotic translation initiation factor 4H (Homo sapiens), Q15056. hit rate 0.94% among 290,000. AID 2012, 2009. inhibition, % at 35 µM. eIF4H fluorescence polarization binding assay;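 active = 50% or more with normal probe brightness, or confirmed in later tests; inconclusive = above 50% with abnormal brightness, or retests that disagree; inactive = below 50% or failed in later tests; about a fifth of its hits are not listed in these tables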;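 also: calls also rest on retests at 20 µM and on dose response follow-up; 0% = protein and probe with vehicle and 100% = probe without protein; strong numbers were not always called active; many hits fall short of the cut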
Env fusion inh: inhibitors of HIV-1 Env-driven cell-cell fusion, primary screen, HeLa-JRFL effector, CEM21 target cells, luciferase; inhibition, % at 12.3 µM; hit rate 1.1% among 360,000; AID 651610, 2012;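 active = mean replicate inhibition score of at least 50 and every replicate individually at or above 50; inconclusive = only one of the two criteria met; inactive = mean below 50 and not all replicates reaching 50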;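 also: 0% = plate neutral controls and 100% = maraviroc near 300 nM; one replicate is shown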
UUG fidelity: modulators of yeast start codon fidelity, primary screen, whole organism, S. cerevisiae, single point, plate reader. S. cerevisiae UUG-firefly luciferase reporter, luminescence/redox ratio. activity score, % at 18.7 µM. hit rate 0.13% among 350,000;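 active = replicate mean at a twofold rise or more, about +100% in these data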;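 also: firefly luciferase made from a UUG start codon reports start codon fidelity; reporter light over untreated wells divided by growth signal over untreated wells; some hits fall short of that in this replicate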
eIF4H FP inh retest: also measured in eIF4H FP inh; calls as there; inhibition, %; compound at 20 µM; confirmation average;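 mean of two retest wells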
PABP FP inh retest: further read-out of PABP FP inh, marked with its call; inhibition, %; compound at 20 µM; confirmation repeats;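 mean of two retest wells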
MT1-MMP act inh RFP: recorded beside MT1-MMP act inh, whose call it bears; RFP signal change, %; measured here: RFP expression control read;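 0 = vehicle wells; hits needed this value within 50% of zero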
* = called active by the depositor; i = inactive; ? = inconclusive; nt = no result given.

SMILES	MT1-MMP act inh	MT1-MMP act inh RFP	PABP FP inh	CSC inhib	Rce1 inhib	eIF4H FP inh	Env fusion inh	UUG fidelity	others
Cc1cc(C)[n+](C2C3CC4CC(C3)CC2C4)o1 (configuration not stated)	5	2	-7	12	i	-9	nt	nt
CN1CCC2(O)OCCCC2C1 (configuration not stated)	-1	0	-3	-8	i	0	-3	-21
CCOc1cc(C(=O)N2CCC3(CC2)OCCO3)cc(OCC)c1OCC	1	4	-4	-5	i	0	nt	-6
C=CCN1C(=O)NC(=O)/C(=C/c2ccoc2)C1=O	-43	8	-2	-10	i	?	nt	1
Cc1ccc(-n2c(O)c(/C=N/c3ncc(Br)cc3Br)c(=O)[nH]c2=O)cc1	-84	-4	?	13	i	?	21	nt
Cc1ccc(C2(O)CCN3CCCCC32)cc1 (configuration not stated)	0	-6	-4	-12	i	-13	-65	-6
C[N+]1(C)CCOC(O)(c2ccc(-c3ccc(C4(O)C[N+](C)(C)CCO4)cc3)cc2)C1 (configuration not stated)	1	2	3	1	i	20	-3	-28
COC(=O)C1=C(c2cc3ccccc3s2)C[C@@H]2CC[C@H]1N2C(=O)NCc1ccc(F)cc1	1	-8	nt	17	i	nt	-9	-5
COC(=O)c1cccc(N=Cc2c(O)n(Cc3ccc(F)cc3)c(=O)[nH]c2=O)c1	-47	3	?	-6	i	?	12	-17
CCC(=NCCCO)c1c(O)n(-c2ccc(OC)cc2)c(=O)[nH]c1=O	-1	1	-5	nt	i	3	nt	-4
O=C(c1ccc2nc(-c3ccco3)c(-c3ccco3)nc2c1)N1CCC2(CC1)OCCO2	1	-1	4	9	nt	87	nt	-8	eIF4H FP inh retest=3;PABP FP inh retest=4
CC1(C)CN2C(c3ccc(Cl)cc3)N2C1 (configuration not stated)	-10	-3	0	-13	i	-3	-49	-17

Random excerpt: 2 entries already listed
SMILES	MT1-MMP act inh	MT1-MMP act inh RFP	PABP FP inh	CSC inhib	Rce1 inhib	eIF4H FP inh	Env fusion inh	UUG fidelity	others
C=CCN1C(=O)NC(=O)/C(=C/c2ccoc2)C1=O	-43	8	-2	-10	i	?	nt	1
COC(=O)c1cccc(N=Cc2c(O)n(Cc3ccc(F)cc3)c(=O)[nH]c2=O)c1	-47	3	?	-6	i	?	12	-17

Going on with the list:
SMILES	MT1-MMP act inh	MT1-MMP act inh RFP	PABP FP inh	CSC inhib	Rce1 inhib	eIF4H FP inh	Env fusion inh	UUG fidelity	others
COc1cccc(C2CCN(CC(=O)Nc3cc(Cl)ccc3OC)CC2O)c1 (configuration not stated)	2	-2	19	0	i	4	3	nt
COc1cc2nc(CN3CC=C(c4ccccc4)CC3)[nH]c(=O)c2cc1OC	-11	-3	nt	90*	nt	nt	i	-13
CN(C)CCCN=Cc1c(O)n(CCc2ccccc2)c(=O)[nH]c1=O	-18	3	99	-11	i	96*	-52	-20	eIF4H FP inh retest=54*;PABP FP inh retest=18
O=C(c1cc(-c2ccc(Cl)cc2)n(-c2ccc(Cl)cc2Cl)n1)N1CCOCC1	-5	-10	0	nt	i	-8	nt	-8
COc1cc2occc2c2oc(=O)ccc12	-4	2	-11	-7	i	1	-14	-15
O=C(O)CSC(=S)N1CC2CC(C1)c1cccc(=O)n1C2 (configuration not stated)	-6	-5	-3	-7	i	-4	1	nt
COc1ccc(C(=O)OC2C[C@H]3CC[C@@H](C2)N3O)cc1OC (some centres not stated)	-7	1	-1	-9	i	-1	31	-13
c1ccc2c(c1)CSc1ccccc1C2C1=NCCN1 (configuration not stated)	2	5	45	-1	i	5	10	nt
C[C@]12CCC(=O)C=C1CCC1C2CC[C@@]2(C)C1CC[C@@]2(O)CC#N (some centres not stated)	1	-2	-8	nt	i	0	nt	-15
CCOC(=O)CSc1ccc(C(=O)N2CCC3(CC2)OCCO3)cc1[N+](=O)[O-]	-2	0	-5	-3	i	-6	0	-7
O=C(CCc1nnc2ccc(NCc3ccccc3)nn12)N1CCC2(CC1)OCCO2	-2	1	nt	18	i	nt	4	-4
COC(=O)C1=C(c2ccc(OC(F)(F)F)cc2)C[C@@H]2CC[C@H]1N2C(=O)NCc1ccc(F)cc1	2	-22	nt	4	nt	nt	-14	-7
COP(=O)(OC)C(Nc1ccccc1)c1ccccc1 (configuration not stated)	-1	0	-4	8	i	-11	-2	10
Cc1ccc(-c2nc3ccccc3c(=O)n2-c2ccc(O)cc2)cc1	0	0	4	-15	i	-4	8	nt
COc1cccc(NP(=O)(Oc2ccccc2Cl)Oc2ccccc2Cl)c1	-4	-7	-6	34	i	-2	nt	-9
Cn1c(O)c(C(c2ccncc2)c2c(O)n(C)c(=S)n(C)c2=O)c(=O)n(C)c1=S	0	7	10	-3	i	-4	nt	-20
NCC(O)c1ccc(O)cc1 (configuration not stated)	2	2	-6	-5	i	-1	nt	-10
COC(=O)C(O)(c1ccc(NC(=O)Oc2ccccc2)cc1)C(F)(F)F (configuration not stated)	3	1	2	1	i	-5	nt	nt
Cc1c(N=Nc2c(O)[nH]c(=O)[nH]c2=O)c(=O)n(-c2ccccc2)n1C	-4	3	15	-18	i	0	14	nt
CCc1nc2ccccc2c(=O)n1-c1cccc(OC)c1	4	1	7	-15	i	3	nt	-9
Cn1cc2c([N+](=O)[O-])cc([N+](=O)[O-])cc2n1	nt	nt	-4	nt	nt	6	6	nt
CC(=O)NN1C(=O)c2ccccc2NC1c1cccnc1 (configuration not stated)	-2	0	7	-1	i	-1	10	nt
C=C1[C@H]2CC[C@H]3[C@]4(C)C[C@H](O[C@@H]5OC(CO)[C@@H](OSOOO)[C@H](OS(=O)(=O)O)[C@H]5OC(=O)CC(C)C)C[C@@H](C(=O)O)[C@H]4CC[C@]3(C2)[C@H]1O (some centres not stated)	0	3	nt	-19	nt	nt	-2	-9
CC1(C)CN(S(=O)(=O)OCC(Cl)(Cl)Cl)C(=O)N1	1	1	13	11	i	3	26	-11
CCCCOP(=O)(OCCCC)/C(C#N)=C(/C)O	3	4	6	-7	i	-5	nt	-3
Cc1ccc(C)c(NC(=S)NCCc2cnc[nH]2)c1	1	3	7	4	i	-2	-4	-24
CC(=O)NC1CC2CCCC(C1)N2 (configuration not stated)	1	6	12	nt	i	4	17	-21
COC1=C[C@@H]2C3=C([C@@H]2C1=O)[C@@H](NC(C)=O)CCc1cc(OC)c(OC)c(OC)c13	4	7	nt	-12	nt	nt	-1	9
COC(=O)C1=C(c2ccc(C(C)=O)cc2)C[C@@H]2CC[C@H]1N2C(=O)NC(C)C	2	0	nt	-3	nt	nt	-11	0
CN1CCCN(C(=O)COc2ccc(Br)cc2)CC1	-1	2	7	-9	i	-1	6	-3
Cc1cccc(-n2c(/C=C/c3ccccn3)nc3ccccc3c2=O)c1	-4	-13	-6	7	i	-5	0	-7
COc1cc(C(=O)NC(=S)N2C[C@H]3C[C@H](C2)c2cccc(=O)n2C3)cc(OC)c1OC	4	7	16	-5	i	67	nt	-23	eIF4H FP inh retest=36;PABP FP inh retest=8
CCN(CC)C(=O)c1ccc(NC(=O)c2cc(-n3cnnc3)ccc2Cl)cc1	-1	0	-6	-5	i	-2	-20	-3
CN1CC(C(=O)c2ccc([N+](=O)[O-])cc2)C(c2ccc(Cl)cc2)C1 (configuration not stated)	-3	1	-6	-10	i	1	5	5
Cc1ccc(C)c(Cn2c(C(=O)O)c(C=O)c3ccccc32)c1	-117	-2	-1	5	i	-6	-10	nt
C[C@H](NC(=O)CCC(=O)N1C[C@H]2C[C@H](C1)c1cccc(=O)n1C2)c1ccccc1	1	2	-7	1	i	-13	nt	-17
Cc1ccccc1[N+](=O)[O-]	-3	6	nt	-13	nt	nt	nt	-13
O=C1NC(=O)C(CCc2ccccn2)(Cc2ccc3c(c2)OCO3)C(=O)N1CCc1ccccc1 (configuration not stated)	-7	-6	13	-15	i	-3	-66	-12
CCCC[N+]12CCC(CC1)C(C(=O)c1cccs1)C2 (configuration not stated)	-1	5	46	0	i	4	nt	nt
CC(=O)N(C)CC#CCN1CCC(O)CC1	-3	3	nt	4	i	nt	-25	-19
CC(=O)Nc1ccccc1C(=O)OCc1ccccc1F	-2	-1	6	-5	i	2	-26	-19
CC(C)NC1C2CCC(CC2)C1(O)c1ccc(Cl)c(Cl)c1 (configuration not stated)	3	-2	nt	nt	nt	nt	4	-8
CC1CCC(NCCc2ccc3c(c2)OCO3)CC1 (configuration not stated)	7	3	17	nt	i	2	nt	-18
Cc1ccc(Oc2cc(NN3CCCCC3)c([N+](=O)[O-])cc2[N+](=O)[O-])c([N+](=O)[O-])c1	3	-8	4	17	i	10	29	-4
COc1ccc(N2C(=O)/C(=C/c3ccc(C)o3)C(=O)NC2=S)c(OC)c1	-6	7	-1	-7	i	22	0	-10
CC(=NCCN1CCOCC1)c1c(O)n(-c2ccccc2C)c(=O)[nH]c1=O	-5	2	2	5	i	-4	-21	-4
Cc1ccc2cc(C=C(C#N)C#N)c(Cl)nc2c1	-20	10	-1	14	i	?	-189	nt
CN1C2CNC(=O)CC1C1CCC2C1 (configuration not stated)	1	8	nt	nt	nt	nt	14	-11
Nc1cc(N2CCNCC2)c([N+](=O)[O-])cc1Cl	2	5	-7	-12	i	3	-3	nt
Cc1ccc(N2Cc3ccccc3C2=N)cc1[N+](=O)[O-]	0	3	-4	-11	i	8	1	nt
COc1cc(OC)c(OC)cc1CNCCc1ccc(OC)c(OC)c1	0	1	10	2	i	-11	nt	15
CCN(CC)Cc1c[nH]c2ccccc12	5	6	-13	0	i	0	nt	-20
C=CCOC(=O)C1=C(C)OC(N)=C(C#N)C12C(=O)N(CN1CCOCC1)c1ccccc12 (configuration not stated)	4	8	3	-12	i	-2	-41	-21
Cc1ccc(S(=O)(=O)NCCC(=O)Nc2ccc(Cl)cc2C(=O)c2ccccc2)cc1	3	-6	-3	-3	i	-2	35	nt
COc1ccc(C2C(C(=O)N3CCC4(CC3)OCCO4)CC(=O)N2c2ccc(OC)cc2)cc1 (configuration not stated)	-5	-4	-5	5	nt	1	nt	nt
CCOC(C[n+]1c(-c2ccccc2)cc(C)cc1-c1ccccc1)OCC	1	-7	nt	3	i	nt	-1	-17
O=C(O)CP(=O)(O)c1ccc(Cl)cc1	0	3	-4	3	i	2	nt	2
C[C@]12CCC(=O)C=C1CC[C@@H]1[C@@H]2C(=O)C[C@]2(C)C(=O)CC[C@@H]12	-1	4	16	61	i	2	-19	7
CCCNS(=O)(=O)c1ccc(OCC(=O)N2CCN(Cc3ccccc3)CC2)cc1	1	-5	-5	-3	i	-5	49	-8
CCn1cc(CN2CCCC(C(=O)c3cccc(OC)c3)C2)c(C)n1 (configuration not stated)	0	3	0	-11	i	-3	12	nt
COc1ccc(-c2nc3ccccc3c(=O)n2-c2cccnc2)cc1	4	6	2	-17	i	-5	-49	-13
COCCCN1CCN(c2nnc3n2-c2sc(Br)cc2C(c2ccccc2Cl)=NC3)CC1	4	4	3	1	i	6	nt	nt

An excerpt. The share of hits here may be higher or lower than overall.
